HSD17B inhib = blocks hydroxysteroid 17-beta dehydrogenase activity. Q99714. recombinant HSD17B10, NADH fluorescence kinetic; many of its hits are not listed in these tables. Potency, µM (doses to about 57.1 µM), for the others: top-dose activity change, negative = inhibition, most hits filed as inhibitors. actives 7.6% (n = 75,000). AID 893; active = well fitted inhibition curve with a large enough effect; inconclusive = small, poorly fitted or top-dose-only effect; inactive = no such curve, though single readings can be large or run the other way;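 note: the protocol describes HADH2 (HSD17B10) and not the HSD17B4 of the title; nearly all actives have a fitted effect of over 70% in size; most hits overshoot -100% by far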
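Enzyme plus compound, 15 min room temperature; substrate mix added (NAD+ 1 mM, beta-hydroxybutyryl-CoA 90 uM final); plates read kinetically for NADH fluorescence. HADH2 was His-tagged, E. coli-derived, 20 nM.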
* marks the source's active call; other numbers are inactive results; ? = inconclusive; & = joins results of further samples; [ ] = another dose, or the depositor's remark. % is set by controls: 0 for no effect and ±100 for the full control effect; potency is the fitted concentration of half-maximal effect.

compound | HSD17B inhib
CC(C)[C@]1(Cl)CC[C@@H]2[C@]3(C)CCC[C@@](C)(C(=O)O)[C@H]3C[C@H](Cl)[C@@]2(Cl)[C@H]1Cl | -4.9%[11.4 µM]
CCCOc1ccc(-c2nnn(CC(=O)OCC)n2)cc1 | -9.4%
COc1nc(-c2ccccc2)cc(C(F)(F)F)n1 | -1.5%
O=C(Nc1ccc(S(=O)(=O)N2CCc3ccccc32)cc1)c1ccc2c(c1)OCO2 | -0.9%
CCOC(=O)c1[nH]c(C)c(C(=O)NC2CCCC2)c1C | 1.1%
Cn1c(-c2ccc3c(c2)OCO3)cnc1NCc1ccc(Cl)cc1 | 31.6µM*
CCCC(=O)Nc1ccc(S(=O)(=O)Nc2cc(C)nc(C)n2)cc1 | -10.7%
C=C[C@@]1(C)CC(=O)[C@@]2(O)[C@@]3(C)[C@@H](O)CCC(C)(C)[C@@H]3[C@H](OC(=O)CCN(C)C)[C@H](OC(C)=O)[C@@]2(C)O1 | -3.4%
CC1(C)Cc2c(C#N)c(OCC(=O)c3ccc(Cl)cc3)nc(-c3ccco3)c2CO1 | -5.1%
Cc1cc(C)n(-c2nc(-n3nc(C)cc3C)c3c4c(sc3n2)COC(C)(C)C4)n1 | ?
O=c1ccc2ccc(OCc3nnc(-c4ccccc4Br)o3)cc2o1 | ?
CCOC(=O)c1sc(NC(=O)C(CC)Sc2nnc3c4ccccc4n(CC)c3n2)nc1C (centres undefined) | -12.2%
N#Cc1cccc(NC(=O)CC2CCCCC2)c1 | 2.6%
Cc1ccc(Cl)cc1N1CCN(C(=O)C2CCN(S(=O)(=O)c3cccnc3)CC2)CC1 | 4.8%
CCOC(=O)C1=C(CNCCc2ccc(Cl)cc2)NC(=O)NC1c1ccc2c(c1)OCO2 (centres undefined) | -23.5%
CCOC(=O)C1CCN(c2ncnc3c2oc2ccc(Cl)cc23)CC1 | -3.7%
c1cncc(-c2nnc3n2CCC3)c1 | 7.8%
CC(C)C(c1nnnn1CCc1ccccc1)N1CCN(C(=O)c2ccco2)CC1 (centres undefined) | -2.7%
O=C(C1CC1)N1CCc2cc(Br)cc(S(=O)(=O)NCCN3CCOCC3)c21 | 7.0%
CC1CCN(C(=O)c2cccc(S(=O)(=O)N3CCCCC3)c2)CC1 | 3.3%
CC1(C)CC(O)C(CCC(O)c2ccccc2)C(C)(C)N1 (centres undefined) | 4.2%
COc1cccc(N2CCN(c3ncccn3)CC2)c1 | 10.3%
COc1ccc2c(c1)OC(O)(C(F)(F)F)CC2=O (centres undefined) | 2.7%
O=C(Nc1cccc(Br)c1)c1cc2ccccc2o1 | -14.9%
COC(=O)[C@H](C)NC(=O)NCc1ccco1 | 6.4%
CCCS(=O)(=O)N1CCCC(C(=O)NCCN(C)Cc2ccccc2)C1 (centres undefined) | 4.8%
COc1ccc(OC)c(NC2=NC3(CCCC3)N=C(N)N2)c1 | -4.3%
COc1ccc(-c2noc(-c3ccccc3C(=O)NCc3ccco3)n2)cc1 | 0.3%
CCC(C)(C)NC(=O)C(OC(=O)c1cc2sccc2n1C)c1ccc(OC)cc1 (centres undefined) | 3.2%
NCCNc1ncnc2ccc(Cl)cc12 | -2.9%[11.4 µM]
COc1ccc(NC(=O)N2CCC3(CC2)CCN(S(=O)(=O)c2ccccc2)CC3)cc1 | 0.7%
CCOC(=O)N1CCN(C(=O)N2CCOCC2)CC1 | 10.2%
CS(=O)(=O)N1CCC2(CCCN(C(=O)Nc3ccccc3)C2)CC1 | -3.4%
Cc1ccc(C(=O)O)cc1S(=O)(=O)NCC1CCCO1 (centres undefined) | 4.5%
COc1cccc(-c2cc(C(=O)NC3CCCC3)no2)c1 | -5.9%
CC(=O)c1ccc(NC(=O)CSc2nc3nc(C)cc(C)n3n2)cc1 | 9.5%
COC(=O)[C@H](CCSC)NC(=O)Nc1ccc(OC)cc1 | 7.1%
Cc1noc(C)c1S(=O)(=O)N(CCc1ccccc1)Cc1ccccc1 | 3.4%
c1ccc2c(c1)oc1c(Nc3ccc(CN4CCOCC4)cc3)ncnc12 | 5.0%
COc1ccc(Oc2ncc3nc(-c4ccc(F)cc4)c(=O)n(C)c3n2)cc1 | 31.6µM*
CCn1c(CSc2nc(C)cc(C)n2)nnc1SCC(=O)N1CCCc2ccccc21 | -1.4%
COc1ccc(NC(=O)CCNC(=O)Cn2ccc3ccccc3c2=O)c(OC)c1 | -3.1%
CCOC(=O)c1sc(C)c2c(=O)n(CCCN3CCOCC3)cnc12 | -9.7%
CCn1cc(C(=O)N2CC=C(c3ccccc3)CC2)c(=O)c2ccc(C)nc21 | -2.4%
c1ccc(-c2cc(CSc3nc4ccccc4[nH]3)on2)cc1 | -15.3%
O=C1C[C@@H](O)[C@@H](O)[C@H]2[C@@H]3C(=O)N(C4CCCCC4)C(=O)[C@@H]3CC[C@H]12 | 1.2%&0.5%&2.7%[11.4 µM]
Cc1cc(NC(=O)CCC(=O)N(C2CC2)C2(C(=O)NC3CCCC3)CCC(C)CC2)no1 (centres undefined) | 2.0%
CCOC(=O)N1CCN(C(=O)c2ccc3c(=O)n(CCC4=CCCCC4)c(=O)[nH]c3c2)CC1 | ?
Cc1ccc(CS(=O)(=O)CCC(=O)NCC2CCCO2)cc1 (centres undefined) | 6.6%
CCOCc1nnc(NC(=O)CSc2ccccc2)s1 | ?
CCOC(=O)CNC(=O)CSc1nc(C)cc(C)c1C#N | 8.3%
CN(C)C(=O)c1ccc(COc2ccccc2Br)o1 | -25.5%
O=C(c1ccccc1)N1CCCCC(Sc2nnnn2-c2ccccc2)C1=O (centres undefined) | -6.9%
O=c1cc(-c2ccccc2)nc2nc(-c3ccco3)[nH]n12 | -16.9%
CCCN(C#N)c1nc(NCC)nc(NC(C)C)n1 | 4.9%
CCOC(=O)C1=C(C)NC2=C(C(=O)CCC2)C1c1ccc(N(C)C)cc1 (centres undefined) | -1.7%

Continuation.
compound | HSD17B inhib
Cn1c2ccccc2c2nnc(SCN3C(=O)c4ccccc4C3=O)nc21 | -10.6%
CC(C)(C)c1ccc(OCC(=O)N2CCN(C=O)CC2)cc1 | 3.5%
COc1ccccc1N1CCN(S(=O)(=O)c2cccc(F)c2)CC1 | 3.8%
Cc1nn2c(c1-c1ccccc1)NC1=C(C(=O)CCC1)C2c1cccnc1 (centres undefined) | 3.16µM*
CCCN(CC(=O)c1cc(C)n(C)c1C)S(=O)(=O)c1cccc(C(F)(F)F)c1 | -21.7%
CC(C)N(C(=O)CSc1nc2c([nH]1)c(=O)n(C)c(=O)n2C)c1ccccc1 | 7.0%
O=C1c2ccccc2-c2ccc(NC(=O)[C@H]3CCCC[C@@H]3C(=O)O)cc21 | -4.3%[11.4 µM]
COc1ccc(N2CCN(Cc3nc4c(c(=O)n(C)c(=O)n4C)n3Cc3cccc(C)c3)CC2)cc1 | -7.3%
COc1ccc(NC(=O)c2oc3ccccc3c2NC(=O)c2ccc3c(c2)OCO3)cc1 | ?
O=C(OCc1cccc2ccccc12)c1ccc2c(=O)[nH]c(CN3CCOCC3)nc2c1 | 10.5%
COc1ccc(CC(=O)Nc2ccc3c(c2)CCC3)cc1S(=O)(=O)N1CCOCC1 | 3.3%
Nc1nonc1C(=O)OCC(=O)N1CCCCC1 | 3.2%
Cc1cc(C)n(-c2nncn2NC(=O)c2ccc(Cl)cc2O)n1 | -19.2%
CC(C)CC1(C(=O)NCc2ccccn2)C=CCN1C(=O)c1ccccc1 (centres undefined) | 4.2%
CS(=O)(=O)N1CCC(C(=O)NCCN2CCN(Cc3ccccc3)CC2)CC1 | 7.4%
CCCn1c(C)nc2c(NCCCN(C)C)nc(C)nc21 | -4.0%
CC1(C)CC(=O)c2cnc(NC(=O)c3ccco3)nc2C1 | 10.8%
CCCCC(=O)Nc1cccc(-c2nc3ncccc3o2)c1 | 31.6µM*
Clc1ccc(Br)cc1-c1nc(-c2ccncc2)no1 | 2.6%
CCC1(C)Cc2ccccc2/C(=C/C(=O)N2CCCCC2)N1 (centres undefined) | 8.7%
COc1cc2nc(C3CCC3)n(NC(=O)C(OC(C)=O)c3ccccc3)c(=O)c2cc1OC (centres undefined) | 0.5%
Cn1nnc(C(O)CNCc2cccs2)n1 (centres undefined) | 11.2%
CCOc1cc(N2CCOCC2)c(OCC)cc1NC(=O)c1nc2nccc(C)n2n1 | 5.5%
CC(Oc1ccccc1)C(=O)NC1C(=O)N2C(C(=O)O)C(C)(C)S[C@@H]12 (some centres undefined) | ?
CCCCOC(=O)C1C2C=CC3(CN(CCc4ccccc4)C(=O)C13)O2 (centres undefined) | 9.1%
Cn1c(C(=O)O)c(CC(=O)NCC2COc3ccccc3O2)c2ccccc21 (centres undefined) | -21.8%
N#Cc1cccc(NC(=O)N2CCCC3(CCN(C(=O)c4ccncc4)CC3)C2)c1 | 2.2%
CC1(C)Cc2c(sc3c2c2ncnn2c2nnc(SCC(=O)NCc4ccco4)n32)CO1 | -27.9%
Cc1ccc(CC2CC(=O)N(c3cc(C)on3)C2=O)cc1 (centres undefined) | 3.2%
Cn1c(SCc2nn[nH]n2)nc2c1c(=O)n(Cc1ccccc1Cl)c(=O)n2C | 4.9%
COC(=O)c1cc(NC(=O)C2CC2)cc(C(=O)OC)c1 | -26.1%
Cc1sc2nc(SC(C)C)nc(N)c2c1C | 0.0%

Look-ups from the entries so far:
COC(=O)c1cc(NC(=O)C2CC2)cc(C(=O)OC)c1 @ HSD17B inhib = -26.1%
N#Cc1cccc(NC(=O)N2CCCC3(CCN(C(=O)c4ccncc4)CC3)C2)c1 @ HSD17B inhib = 2.2%

(next part)
compound | HSD17B inhib
COC(=O)c1ccccc1N1C(=O)[C@@H]2C(c3ccc(F)cc3)=NO[C@@H]2C1=O | -0.1%
COc1ccc(S(=O)(=O)N2Cc3ccccc3CC2C(=O)N2CCOCC2)cc1 (centres undefined) | 5.9%
CC#CCOC(=O)C1=CCCN(C)C1 | 7.2%
O=C(Nc1ccccc1Cl)c1cnccn1 | -26.2%
CCOc1ccc(N(Cc2cc3ccc(C)cc3[nH]c2=O)C(=O)COC)cc1 | ?
Cc1sc2nc3c4ccccc4c(NCc4ccco4)nn3c(=O)c2c1C | 25.1µM*
COc1ccccc1-c1cc(N(C)Cc2ccco2)ncn1 | 31.6µM*
CCC/C=C(\CCC)C(NC(=O)c1ccc(-c2ccccc2)cc1)c1ccc(C(=O)OC)cc1 (centres undefined) | -26.8%
O=C(CN(C(=O)CNS(=O)(=O)c1ccccc1)C1CCCC1)NCC1CCCO1 (centres undefined) | 0.7%
c1csc(CNc2nc3ccccc3n2CCN2CCOCC2)c1 | 0.6%
CSCCOC(=O)c1[nH]c2c(c1C)C(=O)CC(c1ccco1)C2 (centres undefined) | ?
COc1ccc(N(CC(=O)N2CCc3ccccc3C2)S(=O)(=O)c2c(C)[nH]c(=O)[nH]c2=O)cc1 | 1.8%
Cc1cc(C)c(OCC(=O)Nc2ccc3c(c2)OCO3)cc1C | 7.2%
Cc1noc(C)c1S(=O)(=O)N1CCCC(C(=O)NCc2ccccn2)C1 (centres undefined) | 7.5%
c1ccc(B2OC[C@@H]3OB(c4ccccc4)O[C@H]([C@@H]4COB(c5ccccc5)O4)[C@@H]3O2)cc1 | 11.3%[11.4 µM]
C=CCNC(=O)C1CCN(c2nc(C)cc(-c3ccccc3)n2)CC1 | ?
O=C(CSc1nnc(CNC(=O)c2c(F)cccc2Cl)o1)Nc1ccccc1 | 10.8%
CC1CCCN(Cc2nc3c(c(=O)n(C)c(=O)n3C)n2CCCc2ccccc2)C1 (centres undefined) | -6.6%
COc1nc(OC)nc(N2CCC(C(=O)Nc3cccc4ccccc34)CC2)n1 | 0.9%
CN(C)CCCOC(=O)c1ccc(Br)cc1 | 4.8%
CCCCc1ccc(S(=O)(=O)Nc2cc(C)on2)cc1 | 7.6%
O=C1c2ccccc2S(=O)(=O)N1Cc1cc(=O)n2ccsc2n1 | 15.8%
COc1ccc(Br)cc1-c1noc(-c2ccccc2F)n1 | 7.4%
COc1ccc(CN(CC(=O)NCC2CCCO2)C(=O)CCC(=O)Nc2cc(C)on2)cc1 (centres undefined) | -2.5%

Three compounds out of the list, sorted by count of non-hydrogen atoms, descending:
compound | HSD17B inhib
COc1ccc(CN(CC(=O)NCC2CCCO2)C(=O)CCC(=O)Nc2cc(C)on2)cc1 (centres undefined) | -2.5%
COc1ccc(Br)cc1-c1noc(-c2ccccc2F)n1 | 7.4%
CN(C)CCCOC(=O)c1ccc(Br)cc1 | 4.8%

Later entries.
compound | HSD17B inhib
Cc1cccc(-c2nc(CS(=O)CC(=O)NCC3CCCO3)c(C)o2)c1 (centres undefined) | -1.2%
C(=N\n1cnnc1)/c1ccc2c(c1)OCCO2 | ?
CN(Cc1ccncc1)C1CC(=O)N(c2ccc(Cl)cc2)C1=O (centres undefined) | -2.5%
CC(=O)c1cccc(NC(=O)CCS(=O)(=O)c2cccc3nonc23)c1 | 10.4%
OCCOCCNc1ncnc2nc[nH]c12 | -3.3%
O=C1c2[nH]nc(-c3ccccc3O)c2C(c2ccc(F)cc2)N1CC1CCCO1 (centres undefined) | -6.5%
OCCCNCc1cccc2ccccc12 | -2.0%
c1ccc(N2CCN(c3ncnc4sc5c(c34)CCC5)CC2)cc1 | -10.9%
Cc1cc(C)n(CC(O)COCc2ccccc2)n1 (centres undefined) | 4.6%
Cc1csc(SCCn2c(N3CCN(c4ccccc4)CC3)nc3c2c(=O)[nH]c(=O)n3C)n1 | 3.6%
O=C(c1ccc(Cl)s1)N1CCOCC1 | -7.2%
CCOC(=O)c1ccc(NC(=O)C(CC)(CC)C(=O)OCC)cc1 | -2.9%

Screening results as filed in PubChem.

A portion of the library, so the mix of outcomes need not match the whole.
